D2 potentiator = potentiates the human D2 dopamine receptor allosterically. DiscoveRx D2 beta-arrestin cells, luminescence, 90 min; 100% = 57 uM dopamine signal. potentiation, % (no concentration beside the values). 360,000 compounds, 0.23% hits. AID 624464; active = potentiation of 50% or more; inconclusive = 30% to 50%; inactive = 30% or less;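 note: compound concentration not given in the record; tested on top of an EC20 dose of dopamine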
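PathHunter beta-arrestin assay in DiscoveRx D2 cells. Compounds were added with an EC20 of dopamine (50 nM final) for 90 min at 37 deg C. Luminescence was read 1 h after detection reagent, with 57 uM dopamine as the EC100 control.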
gsp agonist = agonists of gsp mutant (McCune-Albright syndrome); AID 624287; 340,000 compounds, 0.13% hits; gsp mutant cells, cAMP HTRF, 30 min; control for the full effect not named in the record; Potency, µM (titrated, usually from 76.9 µM), for the others: top-dose activation (cAMP increase), actives largely listed as activators; active = well fitted activation curve with a large enough effect; inconclusive = small, poorly fitted or top-dose-only effect, or another doubt; inactive = no such curve, though single readings can be large or run the other way; cell line not stated here;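 note: phosphodiesterase inhibitor Ro 20-1724 added with compounds to block cAMP breakdown; potency is the fitted concentration of half-maximal effect; nearly all actives have a fitted effect of over 60% in size; about a fifth of the inactives were tested at one dose only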
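Cells stably selected in G418 were plated at 2000/well, grown 16-24 hr, then given compounds in DMSO with the PDE inhibitor […] (300 uM solution added) for 30 min at 37C; cAMP was read by HTRF.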
Sfp PPTase inh = Sfp phosphopantetheinyl transferase inhibition | 310,000 compounds, 3.5% hits | AID 1490 | Potency, µM, without a hit: max response, negative = inhibition, usual class: inhibitors | Biochemical Sfp PPTase activity, qHTS | Q9F4F7; active = well fitted inhibition curve with a large enough effect; inconclusive = small, poorly fitted or top-dose-only effect, or another doubt; inactive = no such curve, though single readings can be large or run the other way;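 note: the enzyme is Sfp with the accession as filed and its product quenches rhodamine fluorescence; potency is the fitted concentration of half-maximal effect; 0% = enzyme reaction without inhibitor and -100% = no enzyme wells; top concentration of the series not given in the record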
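Fluorescence-quenching assay: 15 nM Sfp-PPTase preincubated 15 min at room temperature with compound, then 5 uM rhodamine-CoA and 12.5 uM BHQ-2-labelled YbbR peptide added. Fluorescence (ex 525/em 598 nm) read at start and after 30 min; difference gives rate.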
Menin MLL FP FL = displaces fluorescein MLL peptide from human menin; Fluorescence polarization, fluorescein-MLL peptide displacement from menin; FP activity change, % at 61.4 µM; 290,000 tested, under 10 active; AID 1766; inconclusive = falling polarisation curve, or a change in total fluorescence; inactive = total fluorescence flat and polarisation flat or rising; no compound was filed as active; the % refers to the polarisation; negative = inhibition;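 note: % of control where 0% means no effect; inhibitors lower the polarisation; unlabelled MLL peptide was the positive control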
gsp antagonist = gsp mutant antagonism; AID 624288; 340,000 compounds, 0.4% hits; gsp-mutant cells, cAMP HTRF, 30 min; control for the full effect not named in the record; Potency, µM (highest dose often 76.9 µM), without a hit: top-dose activity change, negative = inhibition, most hits filed as inhibitors; active = falling curve of any shape with a large fitted effect; inconclusive = falling curve, mostly with a smaller effect; inactive = flat or rising curve; cell line not stated here;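 note: intracellular cAMP measured with PDE inhibitor Ro 20-1724 present during compound exposure; potency is the fitted concentration of half-maximal effect; % is set by controls: 0 for no effect and ±100 for the full control effect; nearly all actives have a fitted effect of over 65% in size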
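HTRF cAMP read-out (cAMP-d2 plus anti-cAMP antibody-K in lysis buffer, 30 min RT). Before lysis, cells are exposed to compounds with […] for 30 min at 37C in DPBS containing Ca/Mg, BSA and Tween 20.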
TRPV1 PAM = potentiators of human vanilloid receptor 1 (TRPV1); AID 540277; potentiation, % at 8.33 µM; 320,000 compounds, 0.02% hits; Q8NER1; TRPV1-expressing cells, Fluo-8 calcium influx, capsaicin EC20 potentiation; host cell line not named in the record; control for the full effect not named in the record; active means potentiation above 80%; inconclusive means 30% to 80%; inactive means below 30%; note: 0% is about no effect
Target sequence (Q8NER1 whole entry, looked up): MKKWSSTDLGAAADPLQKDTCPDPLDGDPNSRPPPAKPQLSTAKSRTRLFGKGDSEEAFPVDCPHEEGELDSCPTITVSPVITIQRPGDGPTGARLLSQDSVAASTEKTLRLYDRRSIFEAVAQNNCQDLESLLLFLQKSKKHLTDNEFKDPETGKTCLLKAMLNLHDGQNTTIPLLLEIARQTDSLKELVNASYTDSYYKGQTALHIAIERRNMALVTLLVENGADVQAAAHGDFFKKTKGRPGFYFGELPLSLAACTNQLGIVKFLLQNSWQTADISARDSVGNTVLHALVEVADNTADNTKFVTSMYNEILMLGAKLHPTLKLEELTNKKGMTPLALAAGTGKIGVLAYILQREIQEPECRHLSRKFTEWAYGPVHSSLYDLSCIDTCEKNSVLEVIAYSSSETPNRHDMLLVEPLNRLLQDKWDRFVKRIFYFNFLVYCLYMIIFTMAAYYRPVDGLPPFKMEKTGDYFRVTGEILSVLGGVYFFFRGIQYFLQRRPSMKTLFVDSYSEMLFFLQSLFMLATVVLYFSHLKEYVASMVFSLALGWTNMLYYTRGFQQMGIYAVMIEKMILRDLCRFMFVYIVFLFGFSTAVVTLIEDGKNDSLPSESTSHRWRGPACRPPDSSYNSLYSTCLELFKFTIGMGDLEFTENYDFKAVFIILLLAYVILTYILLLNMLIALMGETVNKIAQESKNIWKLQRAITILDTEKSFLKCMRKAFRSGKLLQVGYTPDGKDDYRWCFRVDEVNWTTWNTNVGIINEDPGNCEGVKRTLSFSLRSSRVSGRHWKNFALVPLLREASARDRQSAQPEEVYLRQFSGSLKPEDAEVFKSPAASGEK
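Fluo-8 calcium influx in TRPV1-expressing cells, kinetic read (ex 480/em 520 nm). Compound added and read 3 min for agonist activity, followed by capsaicin at EC20 final and 2 min further read for enhancement.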
ClpP mod = qHTS Assay for Activators of ClpP | 340,000 compounds, 1.9% hits | Potency, µM (series often up to 57.5 µM), inactives show at the highest dose activity change, negative = active | purified B. subtilis ClpP, FRET peptide cleavage, 20 min; active = well fitted falling curve with a large enough effect; inconclusive = small, poorly fitted or top-dose-only effect; inactive = no such curve, though single readings can be large or run the other way; note: potency is the fitted concentration of half-maximal effect; the source files actives as falling curves though it sought activators and does not explain the sign; nearly all actives have a fitted effect of over 65% in size; many hits overshoot -100%
Target sequence (P80244 whole entry, looked up): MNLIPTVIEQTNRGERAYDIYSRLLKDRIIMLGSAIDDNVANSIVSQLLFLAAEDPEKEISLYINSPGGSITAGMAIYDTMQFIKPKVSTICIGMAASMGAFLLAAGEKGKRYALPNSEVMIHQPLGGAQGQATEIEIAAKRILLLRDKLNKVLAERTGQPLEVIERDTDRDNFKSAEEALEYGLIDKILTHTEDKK
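FRET quenching reversal measured ClpP activation: 10 microg/mL B. subtilis ClpP at pH 8 with the FRET-FV decapeptide, read at 430 nm after 320 nm excitation. The 20-min minus 0-min signal was scaled between DMSO/no-enzyme wells and ADEP (5.8 microM final).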
Starred values were filed as active, the others as inactive; u = inconclusive; x = not tested or not shown; & = joins results of further samples; [ ] = dose if it differs, or a comment.

Molecule | gsp agonist | TRPV1 PAM | Sfp PPTase inh | D2 potentiator | gsp antagonist | ClpP mod | Menin MLL FP FL
CCOC(=O)C1=C(CSc2nncn2C)NC(=O)NC1c1cc(OCC)ccc1OCC (stereo not given) | -42%[inhibitor] | 19 | u | -1 | -8% | 0.8% | 6.2
CNC(=S)NNC(=O)c1sccc1C | -27% | -18 | 7% | -4 | 17% | 5.2% | 1.0
COC(=O)c1ccncc1C(=O)Nc1ccc(OC)cc1 | -7%[15.4 µM] | -5 | 18% | -6 | 12% | x | 1.8
Cc1c(CCO)c(=O)[nH]n1C(=O)c1c(F)cccc1F | -64%[inhibitor] | 10 | 9% | -3 | 0% | -0.4% | 2.4
Cc1cc(N2CCN(C)CC2)nc2ccc(NC(=O)CCC3CCCC3)cc12 | -17%[15.4 µM] | -7 | -11% | -11 | 12% | 0.4% | -1.1
O=C(COC(=O)/C=C/c1ccccc1Cl)Nc1cccnc1Cl | u | x | x | 1 | -11% | 1.8% | x
COc1ccccc1NS(=O)(=O)c1ccc(Cl)c(NC(=O)CN2C(=O)c3ccccc3C2=O)c1 | 0% | u | 18% | -7 | -11% | -4.0% | 4.1
COc1cc(/C=C/C(=O)OCC(=O)NCc2ccccc2OC)ccc1O | 1% | -13 | x | -8 | -11% | -24% | x
COc1cccc(NC(=O)CSc2ncnc3c2cnn3Cc2ccccc2)c1 | 0% | 13 | -1% | -12 | -13% | -1.1% | 1.4
CC(C)n1c(=O)nc(-c2ccccc2)c2cc3c(cc21)OCO3 | 30% | x | x | -10 | x | -3.3% | x
Cc1cn([C@H]2C[C@H](O)[C@@H](CNCc3cc(Cl)ccc3OCc3ccc(Cl)cc3)O2)c(=O)[nH]c1=O | u | x | x | -4 | x | -1.1% | x
O=C(COC(=O)CNS(=O)(=O)/C=C/c1ccccc1)Nc1cc(S(=O)(=O)N2CCCCC2)ccc1Cl | -48%[inhibitor] | 18 | 19% | -3 | -13% | -2.4% | 1.6
COc1cc(CCC(=O)OCC(=O)Nc2c(C)cc(C)cc2C)cc(OC)c1OC | -17% | -7 | 9% | 18 | 2% | -1.8% | 4.1
O=C(CN(Cc1ccccc1)S(=O)(=O)c1cccc(C(F)(F)F)c1)NC1CCCCC1 | u | 12 | 5% | 3 | 2% | -0.7% | -2.3
O=C(COC(=O)c1ccc(F)cc1Cl)NC1CCS(=O)(=O)C1 (stereo not given) | 20% | -4 | x | -3 | 5% | 1.6% | x
CCn1c(CNc2ccc(Cl)cc2)nnc1SCc1ccccc1 | -23% | 4 | 13% | 8 | -19% | 0.7% | -1.7
Oc1ccc(Br)cc1C=Nc1ccc2c3c(cccc13)CC2 | 2% | 15 | -30% | -28 | 4% | 32µM* | u
CCOC(=O)C(C(=O)OCC)N(C#N)c1nc(N(C)C)nc(N(C)C)n1 | 5%[15.4 µM] | 6 | 21% | -6 | -12% | -5.6% | -2.2
COc1ccccc1OCCC(=O)Nc1cccc(S(=O)(=O)N2CCCCC2)c1 | 19%[15.4 µM] | 7 | 4% | -6 | -11% | 0.7% | 1.5
COc1ccccc1OCc1cc(C(=O)NCCN2CCCC(O)C2)no1 (stereo not given) | -1% | 4 | 4% | 4 | 10% | 0.3% | 5.5
CC(=O)c1ccc(S(=O)(=O)NCc2nnnn2-c2ccccc2)cc1 | -18% | 13 | 26% | -4 | -10% | 0.9% | 2.0
COCC1CCN(C(=O)C2CCC(=O)N(Cc3cccc(F)c3)C2)CC1 (stereo not given) | -13% | 1 | 9% | -10 | -8% | -1.6% | -0.2
Cc1ccc(-c2nc3ccccc3c(=O)n2-c2c(C)n(C)n(-c3ccccc3)c2=O)cc1 | 2%[15.4 µM] | 10 | -3% | -2 | -9% | 2.0% | 4.8
COC(=O)[C@@H](Cc1c[nH]c2ccccc12)NCc1cccc(B(O)O)c1 | x | x | x | -6 | 23% | -0.8% | x
CN(C(=O)COC(=O)c1cnc(Cl)c(Cl)c1)C1CCS(=O)(=O)C1 (stereo not given) | 27% | 3 | 22% | -4 | -12% | x | 0.7
Cc1ccc([N+](=O)[O-])c2c1C(N1CCCCC1)C(C)(C)O2 (stereo not given) | 17% | 4 | 14% | -5 | -1% | x | -0.1
COc1ccc(OCC(=O)NC(=S)Nc2ccc(S(=O)(=O)Nc3cc(C)on3)cc2)cc1 | 9%[15.4 µM] | 9 | 4% | -20 | -9% | -2.2% | -1.4
CCN(CC)c1ccc(NC(=O)CN2CCN(S(=O)(=O)c3cc(Cl)ccc3OC)CC2)cc1 | -72%[inhibitor] | 7 | -5% | -14 | -16% | 0.1%&1.2% | 2.1
O=S(=O)(Nc1ccc(S(=O)(=O)N2CCOCC2)cc1)c1ccccc1 | -2% | 3 | 9% | 15 | -12% | -3.6% | 1.7
CC(=O)Nc1ccc2nc(-c3ccncc3)[nH]c2c1 | u | 3 | -1% | -2 | 19% | 25µM* | 5.4
O=C(Nc1ccccc1)c1cc2ccc3ccccc3c2s1 | 16%[15.4 µM] | -2 | 15% | -16 | -7% | x | 6.3
CCOC(=O)c1sc(-c2ccccc2)cc1NC(=O)Nc1ccccc1 | 21% | 0 | 7% | -15 | -23% | u | 0.7
O=C(C1CCCN(S(=O)(=O)c2cccc3nsnc23)C1)N1CCCCCC1 (stereo not given) | -48%[inhibitor] | 15 | 6% | -7 | -5% | 1.9% | -0.2
CCN1CCN(c2ccc(S(=O)(=O)N3CCOCC3)cc2NC(=O)c2ccc(OCC(C)C)cc2)CC1 | -28% | x | x | 0 | -10% | 1.8% | x
COc1ccc(N2CCN(S(=O)(=O)Cc3ccccc3)CC2)cc1 | -3% | -9 | -3% | -4 | 1% | -7.4% | -3.2
CC(C)CNc1ncnc2c1sc1nc(N3CCOCC3)c3c(c12)CC(C)(C)OC3 | -31%[inhibitor] | -6 | 24% | 2 | u | 6.3µM* | 3.6
Cc1ccc(S(=O)(=O)Nc2nsc(N)n2)cc1 | -22% | 12 | 35µM* | -13 | -3% | -3.4% | 2.0
CCC(C(=O)OCCOCCN(CC)CC)c1ccccc1 (stereo not given) | 26% | -5 | 18%&3% | -9 | 10% | 1.7% | 0.4&3.2
Cc1cc(C)cc(OC(C)C(=O)Nc2ccccc2C(=O)NCc2cccnc2)c1 (stereo not given) | -4%[15.4 µM] | -1 | 35µM* | -20 | -18% | x | 8.6
O=C(CC1C(=O)NCCN1Cc1cccc(Oc2ccccc2)c1)NCCc1cscn1 (stereo not given) | 2% | 10 | -20% | -8 | 41%[activator] | -1.0% | -2.5
Cc1ccc(NC(=O)c2ccccc2F)c(NC(=O)c2ccccc2F)c1 | -26% | x | x | 0 | -6% | x | x
O=S(=O)(c1ccccc1)c1nc(-c2ccccc2)oc1N1CCCC1 | -2%[15.4 µM] | 2 | 11% | -7 | 5% | -3.8% | 2.1
CCOC(=O)c1c(C)nc2c3ccccc3ccn12 | -35%[inhibitor] | 2 | 10% | -12 | -8% | -13% | 3.7
COc1cc(CCC(=O)OCC(=O)Nc2ccc3c(c2)OCO3)cc(OC)c1OC | 16% | 14 | -6% | -5 | 0% | x | 1.3
O=C(/C=C/c1cccc(Cl)c1)NCc1ccncc1 | 12% | -9 | 19% | -17 | -5% | -1.5% | 2.5
C=CCN1C2CCCC1CC(NC(=O)Nc1cccc(C(C)=O)c1)C2 (stereo not given) | 15% | 5 | 11% | -23 | 12% | -2.0% | 2.9
O=C1CSc2ccc(S(=O)(=O)NCc3ccc(F)cc3)cc2N1 | -2% | -4 | 12% | 3 | 12% | -1.5% | 0.0
COc1ccc(C(CNC(=O)c2cccc(N(C)C)c2)N2CCCC2)cc1 (stereo not given) | -21% | -3 | 6% | -19 | -5% | 0.3% | 6.6
O=C(COC(=O)C1CCN(S(=O)(=O)c2cccs2)CC1)Nc1ccccc1 | 8% | -2 | 23% | -2 | -4% | x | -6.1
COc1ccc(C2=CC(=O)OC3(CCCCC3)O2)cc1 | -36%[inhibitor] | -19 | -13% | -15 | u | -2.0% | 3.9
CC(=O)Nc1ccc(S(=O)(=O)N2CCN(CCc3ccccc3)CC2)cc1 | -22% | 8 | 24% | -5 | 2% | 0.1% | 0.7
O=C(O)C12CC3CC(C1)CC(n1ncc(N4CCN(c5ccccc5)CC4)c(Cl)c1=O)(C3)C2 | -38%[inhibitor] | -16 | 11% | -12 | 12% | 0.6% | 4.0
O=C1C2C3CCCC3=C3CCCC3C2C(=O)N1c1ccc(F)cc1 (stereo not given) | -18% | -11 | -14% | 3 | -1% | -2.0%&5.4% | -0.4
O=c1[nH]c(CN2CCN(S(=O)(=O)c3ccc4ccccc4c3)CC2)nc2ccccc12 | -4%[15.4 µM] | 13 | -6% | 4 | -13% | x | -1.3
Cc1ccc(N2CC(NC(=O)N3CCN(C(=O)c4ccco4)CC3)CC2=O)cc1 (stereo not given) | -14% | -1 | x | 19 | 4% | -1.8% | x
NC(=O)C1CCN(CC(=O)Nc2ccccn2)CC1 | -5% | -1 | 9% | -3 | 18% | -1.8% | -1.0
Nc1c(Cl)cc2c(c1Oc1ccccc1)C(=O)c1ccccc1C2=O | 0% | 27 | -7% | -3 | -9% | 1.2% | u
CCN(CC)C(=O)CSc1ncccc1-c1nc2ccccc2[nH]1 | -17% | 1 | 6% | 4 | -11% | -20% | -3.6
C[C@H]1CN([C@@H](C)CO)C(=O)CCCn2nncc2CO[C@@H]1CN(C)Cc1ccc(C(=O)O)cc1 | -15% | x | x | -1 | x | -1.3% | x
N/C(=N\OC(=O)c1ccc(=O)n(Cc2ccc(Cl)cc2)c1)c1ccccn1 | 20% | 9 | -1% | 10 | 2% | 1.1% | 0.4
CN(CC(=O)Nc1ccc(F)c(F)c1F)C(=O)Cn1cnc2c1c(=O)n(C)c(=O)n2C | u | 2 | x | -10 | 12% | -3.5% | x
O=C(NCc1ccc2c(c1)OCO2)c1ccc(Br)o1 | 7%[15.4 µM] | -19 | 7% | 5 | 4% | x | -8.8
